Ecoli growth: blocks Escherichia coli growth. OD600, 23 h; hits give low values. OD600 absorbance (no concentration beside the values). 0.21% of 330,000 active;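 active = OD600 absorbance below the run mean of sample wells minus 3.6 SD, in any replicate, cut at about 0.56 in these data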;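 also: stock transfer was 300 nL into about 60 µL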
HNF4A DNA FP: change in binding of human HNF4 alpha to DNA; P41235; HNF4a-FITC DNA binding, fluorescence polarization, 1 h; activity change, % at 10 µM; 0.3% of 360,000 active; AID 1224865; in the data active = activity change above about 30%, passing the limit was not always enough;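 also: controls were the assay level and a saturating level of protein; the project sought stronger binding though the title names inhibitors; some compounds called inactive have numbers as strong as hits; positive values seem to mean higher polarization but the record does not say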
Target sequence (P41235 whole entry, looked up): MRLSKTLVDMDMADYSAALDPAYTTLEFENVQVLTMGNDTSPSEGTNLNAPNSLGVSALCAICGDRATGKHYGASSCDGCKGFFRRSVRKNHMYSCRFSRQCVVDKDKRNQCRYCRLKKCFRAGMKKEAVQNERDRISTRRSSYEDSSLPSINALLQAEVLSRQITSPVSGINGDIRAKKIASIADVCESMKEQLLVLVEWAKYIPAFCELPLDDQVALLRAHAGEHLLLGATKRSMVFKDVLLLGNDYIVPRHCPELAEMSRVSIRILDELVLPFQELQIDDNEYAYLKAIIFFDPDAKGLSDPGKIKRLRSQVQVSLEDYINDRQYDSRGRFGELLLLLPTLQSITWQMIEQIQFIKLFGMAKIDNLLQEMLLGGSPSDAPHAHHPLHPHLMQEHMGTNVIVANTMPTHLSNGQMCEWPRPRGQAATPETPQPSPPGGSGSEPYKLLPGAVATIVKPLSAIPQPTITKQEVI
FGF22 binding: binders of recombinant human FGF22 by thermal shift | SYPRO orange fluorescence; percent of sucrose octasulfate shift, DMSO zero | calls only at 9.99 µM | 1.5% of 340,000 active;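 active = melting point raised past a set limit in the mean and every replicate; inconclusive = no clear call; three in four hits are not shown here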
Ecoli rRNA inh: selective bacterial rRNA inhibition in E. coli; GFP signal change (wild-type ribosome), % (concentration not given with the values); 1.6% of 350,000 active; E. coli WT GFP vs humanized-ribosome RFP mutants, fluorescence, 24 h; hits give low values; DMSO median 0, no signal -100;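 active = significant combined selectivity score with lowered wild-type GFP, culture density cut under 30%, mutant RFP and density less affected; inactive = any of these conditions unmet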; also: one replicate is shown; some compounds called inactive have numbers as strong as hits
ALR inh: blocks human ALR sulfhydryl oxidase activity | P55789 | purified ALR, DTT oxidation, H2O2 HRP-luminol luminescence | inhibition, % (test concentration not listed) | 3.8% of 290,000 active;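 active = mean and each replicate at 75% or more; inconclusive = only one of the two met; inactive = neither met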;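 also: stock transfer was 7.5 nL into about 7.5 µL; 0% = neutral wells and 100% = wells with inactivated enzyme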
AF4-AF9 inh: blocks AF4 peptide binding to human AF9; P42568; AlphaScreen, biotin-AF4 peptide binding to FLAG-AF9; inhibition, % at 10 µM; 0.47% of 350,000 active;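 active = every replicate reaching a set inhibition limit, whatever the replicate mean, cut at about 25% in these data; inconclusive = mean inhibition reaches that limit but some replicates miss it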;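 also: 0% = plate neutral control median and 100% = total signal loss; the record names both 10 and 1 µM as test concentration; the first replicate is given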
Target sequence (P42568 whole entry, looked up): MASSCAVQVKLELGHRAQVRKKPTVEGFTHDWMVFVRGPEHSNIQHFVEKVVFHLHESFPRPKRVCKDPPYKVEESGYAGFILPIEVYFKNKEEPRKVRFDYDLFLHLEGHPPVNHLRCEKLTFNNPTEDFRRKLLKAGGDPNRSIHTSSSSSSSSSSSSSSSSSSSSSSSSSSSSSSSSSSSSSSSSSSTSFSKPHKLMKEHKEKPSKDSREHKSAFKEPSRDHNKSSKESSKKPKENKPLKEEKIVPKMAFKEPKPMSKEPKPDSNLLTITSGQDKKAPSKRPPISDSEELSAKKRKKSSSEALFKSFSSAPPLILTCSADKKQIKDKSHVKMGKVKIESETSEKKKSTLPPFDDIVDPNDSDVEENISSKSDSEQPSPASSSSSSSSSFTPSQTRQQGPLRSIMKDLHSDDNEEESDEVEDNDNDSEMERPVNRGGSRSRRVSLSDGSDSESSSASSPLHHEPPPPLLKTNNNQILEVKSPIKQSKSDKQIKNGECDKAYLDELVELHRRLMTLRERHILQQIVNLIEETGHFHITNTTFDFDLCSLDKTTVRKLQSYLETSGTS
Vif TR-FRET: HIV-1 Vif–A3G interaction blockers – biochemical, TR-FRET, GST-Vif 1-94, biotin-A3G peptide, dose response retest, primary screen (AID 1117319) | one-dose inhibition, %; IC50 in µM for titrated hits | 0.57% of 260,000 active | TR-FRET GST-Vif / biotin-A3G peptide binding; higher % means a stronger effect; test concentration not given here; strong numbers were not always called active;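 active = above the screen mean plus three standard deviations and confirmed in dose response; inconclusive = results disagree or hit not tested in dose response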;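 also: Vif residues 1-94 fused to GST binding biotinylated APOBEC3G peptide 110-148; 0% = full assay without inhibitor and 100% = GST in place of GST-Vif; retest series ran down from 100 µM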
Ecoli rRNA inh OD600: second read-out of Ecoli rRNA inh, no call of its own (marks repeat the call); OD600 change, %; measured here: OD600 growth;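 optical density of the mix in the first replicate; 0 = DMSO median and -100 = no signal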
Ecoli rRNA inh RFP: further read-out of Ecoli rRNA inh, marked with its call; RFP signal change, %; measured here: RFP humanized mutant strains;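 first replicate; 0 = DMSO median and -100 = no signal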
* marks the source's active call; other numbers are inactive results; i = inactive; ? = inconclusive; · = no result given; & = joins results of further samples. Not all compounds are listed, so the mix of outcomes need not match the whole.

SMILES | Ecoli growth | HNF4A DNA FP | FGF22 binding | Ecoli rRNA inh | Ecoli rRNA inh OD600 | Ecoli rRNA inh RFP | ALR inh | AF4-AF9 inh | Vif TR-FRET
O=C(NC1CCCCCC1)c1ccc(-n2cnnc2)cc1 | 0.68 | 1.6 | i | 4 | 4 | -2.1 | 6 | -0.7 | ·
COc1ccc(/C=C/C(=O)NC(=S)Nc2ccc(N3CCN(C(C)=O)CC3)cc2)cc1 | 0.63 | 2.4 | i | · | · | · | 0 | -2.7 | -2%
CC1CCCC(NC(=O)COC(=O)c2c[nH]c(=O)[nH]c2=O)C1C (stereo not drawn) | 0.74 | -2.1 | · | · | · | · | -9 | · | 2%
Cc1ccc(S(=O)(=O)N2CCN(CCOc3cccc(C)c3)CC2)cc1 | 0.63 | -0.6 | i | · | · | · | -13 | 3.6 | ·
COc1ccc2c3c([nH]c2c1)[C@H](CO)NCC31CCN(C(=O)C2CCCCC2)CC1 | · | · | i | -3 | -1 | 7.2 | · | 0.9 | ·
COc1ccc(C)cc1NC(=O)C1CCN(S(C)(=O)=O)CC1 | 0.69 | -2.1 | i | 8 | 4 | 2.3 | -5 | -3.5 | ·
CCCC1=C(C(=O)OCC)C(c2ccc(OC)c(C)c2OC)C(C#N)=C(N)O1 (stereo not drawn) | 0.67 | 5.3 | · | · | · | · | 5 | · | 12%
CCCS(=O)(=O)c1nc(S(=O)(=O)c2ccc(C)cc2)c(N2CCC(C(N)=O)CC2)s1 | 0.7 | 2.0 | i | 5 | -3 | 1.1 | -1 | -1.1 | 5%
COc1ccc(NC(=O)Nc2c(C)n(-c3ccccc3)c(=O)n2C)cc1OC | 0.69 | -1.8 | · | · | · | · | -21 | · | -3%
Cn1nc(C(=O)Nc2cccc(C(F)(F)F)c2)c2ccccc2c1=O | 0.67 | 2.7 | · | · | · | · | -5 | · | 23%
CCC(=O)N1CCC2(CC1)CN(C(=O)Nc1ccc(F)cc1)[C@H](CO)c1c2c2ccc(OC)cc2n1C | · | · | i | -4 | 2 | 1.8 | · | 0.1 | ·
CO[C@H]1CN(C)C(=O)c2cc(NC(=O)c3cnccn3)ccc2OC[C@H](C)N(CCc2ccccc2)C[C@H]1C | · | · | i | -1 | 3 | 1.6 | · | 2.0 | ·
CO[C@H]1CN(C)C(=O)c2cc(NC(C)=O)ccc2OC[C@@H](C)N(Cc2ccc(F)cc2)C[C@H]1C | · | · | i | 1 | 7 | 0.2 | · | 1.9 | ·
Cc1cccc(C(=O)N2CCC(n3nnc4cc(F)ccc43)CC2)c1 | 0.71 | -2.1 | · | · | · | · | · | · | ?
CC(C)(C)C(=O)NNC(=O)c1ccc(Oc2cc(Cl)cc(Cl)c2)o1 | 0.7 | -1.9 | i | 1 | 7 | -2.2 | · | 0.3 | -4%
C#CCN(C[C@@H]1[C@@H](OC(=O)NC2CCCC2)[C@@H](OC(=O)NC2CCCC2)CN(C(=O)OC(C)C)N1C(=O)OC(C)C)S(=O)(=O)c1ccc(C)cc1 | · | -12 | i | 5 | 4 | -0.9 | · | -1.6 | ·
CO[C@H]1CN(C)C(=O)c2cc(NS(=O)(=O)c3ccc(C)cc3)ccc2OC[C@H](C)N(C)C[C@@H]1C | · | · | i | 2 | 1 | -1.3 | · | -2.2 | ·
COC(=O)CN1C(=O)NC2(CCCc3ccccc32)C1=O (stereo not drawn) | 0.66 | 1.3 | i | 10 | 17 | 0.3 | -2 | -1.0 | -5%
O=C(Cn1cnc2ccccc2c1=O)Nc1cccc(-c2nnc3n2CCCCC3)c1 | 0.73 | 9.9 | · | · | · | · | -1 | · | 0%&25%
Cc1c(CN(C)C(=O)c2sc3cc(Cl)ccc3c2Cl)cnn1C | 0.72 | -3.9 | · | · | · | · | 0 | · | -5%
O=c1oc2cc(OCCO)ccc2c2c1CCCC2 | 0.69 | 3.0 | i | -1 | -8 | 0.2 | -10 | -3.5 | 11%
CC(C)c1ccc(-c2cc(C(=O)N3N=C(C(F)F)CC3(O)C(F)F)c3ccccc3n2)cc1 (stereo not drawn) | 0.75 | 0.6 | · | · | · | · | -1 | · | 19%
C[C@H]1CN([C@@H](C)CO)C(=O)c2cc(NC(=O)Cc3cn(C)c4ccccc34)ccc2O[C@@H]1CN(C)S(=O)(=O)c1ccc(Cl)cc1 | · | · | i | -4 | -5 | -1.7 | · | -14 | ·
Cc1cc(C)c2sc(NC(=O)C3CC3)nc2c1 | 0.78 | -1.6 | i | 8 | -4 | -1.7 | 0 | -1.5 | ·
O=c1[nH]cnc(O)c1C(c1ccc(Br)cc1)c1c(O)nc[nH]c1=O | 0.69 | -1.7 | i | 6 | -2 | -3.3 | -7 | -3.7 | ·

Some values from the entries so far.
Reading for Cc1ccc(S(=O)(=O)N2CCN(CCOc3cccc(C)c3)CC2)cc1 under Ecoli growth: 0.63
Reading for CO[C@H]1CN(C)C(=O)c2cc(NC(C)=O)ccc2OC[C@@H](C)N(Cc2ccc(F)cc2)C[C@H]1C under Ecoli rRNA inh OD600: 7
Reading for Cc1cc(C)c2sc(NC(=O)C3CC3)nc2c1 under HNF4A DNA FP: -1.6
Reading for Cc1cccc(C(=O)N2CCC(n3nnc4cc(F)ccc43)CC2)c1 under HNF4A DNA FP: -2.1
Reading for O=c1[nH]cnc(O)c1C(c1ccc(Br)cc1)c1c(O)nc[nH]c1=O under ALR inh: -7
Reading for C#CCN(C[C@@H]1[C@@H](OC(=O)NC2CCCC2)[C@@H](OC(=O)NC2CCCC2)CN(C(=O)OC(C)C)N1C(=O)OC(C)C)S(=O)(=O)c1ccc(C)cc1 under HNF4A DNA FP: -12

Further results follow:
SMILES | Ecoli growth | HNF4A DNA FP | FGF22 binding | Ecoli rRNA inh | Ecoli rRNA inh OD600 | Ecoli rRNA inh RFP | ALR inh | AF4-AF9 inh | Vif TR-FRET
CC(=O)c1c(C)nc(-c2ccc(Cl)cc2)nc1NC(=O)C(C)C | 0.67 | -3.3 | · | · | · | · | 11 | · | 0%
COC(=O)c1cc2ccsc2n1CC(=O)N(C)C1CCCCC1 | 0.67 | -3.7 | · | · | · | · | -12 | · | -10%
COc1ccc2c3c(n(C)c2c1)[C@@H](CO)N(C(=O)Nc1ccc(F)cc1)CC31CCN(Cc2cccc(F)c2)CC1 | · | · | i | -13 | -20 | 36 | · | -0.4 | ·
CC(C)(C)OC(=O)N1CCC(c2cc(=O)n3[nH]cc(C(=O)Nc4ccc(F)c(Cl)c4)c3n2)CC1 | 0.69 | -17 | i | 3 | 3 | 10 | -2 | -1.9 | ·
COc1cccc(-c2cn(CC[C@H]3CC[C@H](NC(=O)CN(C)C)[C@@H](CO)O3)nn2)c1 | · | · | i | -2 | 2 | 0.2 | · | -1.3 | ·
Cc1ccc(C(=O)N2CCN(c3ccc4c(c3)C3CC4CCN3C(=O)OCc3ccccc3)CC2)cc1 (stereo not drawn) | · | 3.7 | i | 4 | 6 | 42 | · | 6.2 | ·
O=C(C1CCC(=O)N1Cc1ccccc1Cl)N1CCN(c2ccc(F)cc2)CC1 (stereo not drawn) | 0.72 | 3.1 | · | · | · | · | 97* | · | -1%
CCOC(=O)C(=C1Nc2ccccc2N1)n1c(-c2cnccn2)nc2ccccc21 | · | 1.0 | i | 5 | 10 | -1.6 | · | 2.8 | ·
COc1ccc(S(=O)(=O)Nc2ccc3c(c2)C(=O)N([C@@H](C)CO)C[C@H](C)[C@@H](CN(C)C(=O)Nc2c(C)noc2C)OCCCC[C@@H](C)O3)cc1 | · | · | i | 4 | 0 | 0.3 | · | -2.6 | ·
Cc1cc(C(=O)CN2C(=O)C(=O)N(Cc3ccccc3)C2=O)c(C)n1CC1COc2ccccc2O1 (stereo not drawn) | 0.71 | 5.6 | · | 9 | 4 | 5.4 | -3 | -0.5 | -11%
CCOc1ccc(S(=O)(=O)NCc2ccc3c(c2)OCO3)cc1 | 0.72 | -3.9 | i | 1 | 0 | 1.3 | 2 | 0.9 | ·
COc1cccc(C(=O)NCC(c2cccnc2)N2CCN(c3ccccc3OC)CC2)c1 (stereo not drawn) | 0.78 | 2.1 | · | · | · | · | · | · | 16%
COc1cccc(NC(=O)CSc2ccc(-c3ccco3)nn2)c1 | 0.65 | 1.0 | i | -17 | -10 | -0.3 | 45 | -1.7 | 4%
N#C/C(=C\c1cn(-c2ccccc2)nc1-c1ccccc1)S(=O)(=O)c1ccccc1 | 0.68 | -2.6 | · | · | · | · | 3 | · | ·
NC(CCc1ccccc1)c1csc(Nc2ccc(C(F)(F)F)cn2)n1 (stereo not drawn) | · | -0.2 | i | -59 | -81 | -19 | · | 9.5 | ·
NC(=O)N/N=C/c1c(F)c(F)c(F)c(F)c1F | · | -1.0 | i | 14 | 16 | 0.8 | 10 | -0.2 | -6%
CCCS(=O)(=O)N1CCC(C(=O)NCc2ccc3c(c2)OCO3)CC1 | 0.71 | 2.7 | i | 5 | 3 | 1.3 | -2 | -1.3 | ?
COc1cc2ccccc2cc1C(=O)NCc1ccncc1 | 0.68 | -1.5 | i | 4 | 4 | 3.6 | -20 | -0.3 | -4%
COc1ccc2c3c([nH]c2c1)[C@H](CO)N(Cc1nccs1)CC31CN(C(=O)C2CCCCC2)C1 | · | · | i | -1 | -5 | 2.1 | · | 8.5 | ·
O=c1[nH]c(=O)n(-c2ccccc2)c2c1C(C(F)(F)F)(C(F)(F)F)N=C(CCC1CCCCC1)N2 | 0.68 | -0.8 | · | · | · | · | -1 | · | -3%
Cc1ccn(CCC(=O)N2CCCC(CCC(=O)NCc3ccc(F)c(F)c3)C2)n1 (stereo not drawn) | 0.67 | 3.0 | i | 2 | 2 | -0.3 | -32 | -1.8 | -3%
CCOc1ccc(N(CC(=O)NCc2ccccc2Cl)S(=O)(=O)c2c(C)[nH]c(=O)[nH]c2=O)cc1 | 0.71 | -1.4 | i | 1 | 5 | 2.5 | -8 | -8.2 | ·
COc1ccc2c3c([nH]c2c1)[C@@H](CO)N(C(=O)c1cccnc1)CC31CCN(Cc2cccnc2)CC1 | · | · | i | 3 | 8 | -4.3 | · | 3.3 | ·
C[C@H](CO)N1C[C@H](C)[C@@H](CN(C)C(=O)CCN2CCCCC2)Oc2ncc(C#Cc3ccccn3)cc2C1=O | · | · | i | 1 | 11 | 1.6 | · | 0.6 | ·
CCN(CC)S(=O)(=O)c1cc(C(=O)Nc2cc(C)on2)ccc1Cl | 0.7 | -4.1 | i | 6 | 5 | -0.4 | 0 | -1.1 | ·
NC(=O)Nn1c(CCC(=O)O)ccc1-c1ccc(Br)cc1 | 0.69 | 0.1 | · | 4 | 0 | 3.9 | 5 | · | ?
Cc1cccc(-n2nnnc2-c2cnccc2C(F)(F)F)c1C | 0.66 | 3.7 | i | · | · | · | -4 | -2.6 | -15%
Cc1ccc(NC(=O)c2cc(N(C)C)ccc2[P+](=O)O)cc1 | 0.72 | -6.5 | i | 9 | 2 | -3.8 | 16 | -1.6 | -1%

A draw from above in order of formula weight, highest first:
SMILES | Ecoli growth | HNF4A DNA FP | FGF22 binding | Ecoli rRNA inh | Ecoli rRNA inh OD600 | Ecoli rRNA inh RFP | ALR inh | AF4-AF9 inh | Vif TR-FRET
COc1ccc(S(=O)(=O)Nc2ccc3c(c2)C(=O)N([C@@H](C)CO)C[C@H](C)[C@@H](CN(C)C(=O)Nc2c(C)noc2C)OCCCC[C@@H](C)O3)cc1 | · | · | i | 4 | 0 | 0.3 | · | -2.6 | ·
Cc1cc(C(=O)CN2C(=O)C(=O)N(Cc3ccccc3)C2=O)c(C)n1CC1COc2ccccc2O1 (stereo not drawn) | 0.71 | 5.6 | · | 9 | 4 | 5.4 | -3 | -0.5 | -11%
COc1cccc(-c2cn(CC[C@H]3CC[C@H](NC(=O)CN(C)C)[C@@H](CO)O3)nn2)c1 | · | · | i | -2 | 2 | 0.2 | · | -1.3 | ·

Screening data: PubChem, several laboratories
